Assay outcomes deposited in PubChem by National Center for Advancing Translational Sciences (NCATS).
PINK1 modulator: modulators of PINK1 expression; PINK1 immunofluorescence, high-content cytometry, 24 h; Potency, µM (highest dose often 76.6 µM), inactives show top-dose activation (PINK1 increase), actives largely listed as activators; actives 0.2% (n = 410,000); active = well fitted activation curve with a large enough effect; inconclusive = small, poorly fitted or top-dose-only effect; inactive = flat fitted curve, though single readings scatter; cell line not stated here;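 also: % of control where 0% means no effect; nearly all actives have a fitted effect of over 65% in size; a mitochondrial uncoupler was the plate control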
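Compound titrations (5 concentrations, 24 h) on a stable cell line; DMSO and CCCP controls. Endpoint: fixed-cell PINK1 immunofluorescence with mitochondrial, cell and nuclear markers, scanned by microplate cytometer.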
Active calls of the source: *; ? = inconclusive. Potency is read from the fitted curve at half-maximal effect. These rows are one share of the data. The share of hits here may be higher or lower than overall.

SMILES,PINK1 modulator
Cc1cccc(NC(=O)CCS(=O)(=O)c2cc(Br)cc3c2N(C(=O)C2CC2)CC3)c1C,-0.2%
COc1ccccc1NC(=O)CN1C(=O)C2(SCC(=O)N2c2ccc(C)c(C)c2)c2ccccc21 (stereo unspecified),-5.3%
Cn1cnc(S(=O)(=O)N2CCCC(C(=O)Nc3ccc(F)cc3Cl)C2)c1 (stereo unspecified),0.0%
COc1cccc(NC(=O)C(CCSC)NC(=O)C2CCC(C)CC2)c1 (stereo unspecified),-0.7%
CCOc1ccc(NC(=O)Cc2ccc(-n3c(C)nc4cccnc43)cc2)cc1,0.7%
CCCCNC(=O)C1CCCN(S(=O)(=O)CCC)C1 (stereo unspecified),-0.7%
Cc1cccc(C(=O)Nc2ccccc2SCc2cc(=O)c3cccc(C)c3[nH]2)c1,1.1%
CCOc1cccc(CNCCCSc2nnnn2C)c1,0.0%
COc1ccc(C)cc1NC(=O)CN(c1ccccc1)S(=O)(=O)N(C)C,0.2%
Cc1ccccc1OCC(=O)Nc1ccc2oc(-c3ccc(F)cc3)nc2c1,1.9%
Cc1ccc(NC(=O)c2ccc3c(O)c(S(=O)(=O)c4ccc(Cl)cc4)c(=O)[nH]c3c2)cc1,0.9%
COCCCNC(=O)c1ccc2c(c1)N(Cc1ccccc1)C(=O)c1ccccc1S2,0.9%
CCCCNC(=O)CC1N=C2c3ccccc3N=C(SCC(=O)NCc3ccccc3Cl)N2C1=O (stereo unspecified),2.5%
S=C(NCCCN(Cc1ccc(Cl)cc1)c1ccc(Br)cn1)NCc1ccc2nc[nH]c2c1,0.7%
Cc1cccc(C(=O)Nc2ccc(N3CCC(N4CCCCC4)CC3)c(C(=O)O)c2)c1,0.1%
Cc1cccn2c(=O)cc(CSc3nnc(NC(=O)C(C)C)s3)nc12,13.2%
Cc1ccc(Cl)cc1N1CCN(C2(c3ccccc3)C(=O)c3ccccc3C2=O)CC1,4.4%
O=C(NCCCN1CCN(c2ccc(F)cc2)CC1)C1COc2ccccc2C1 (stereo unspecified),1.1%
COc1ccc(NC(=O)C(C)N2Cc3ccccc3C2=O)cc1OC (stereo unspecified),-0.7%
CCOc1ccc(C(=O)Nc2ccc(-n3nncc3-c3ccc(OC)cc3)cc2)cc1,0.5%

Rewritten field by field: four of the compounds above.
compound: COCCCNC(=O)c1ccc2c(c1)N(Cc1ccccc1)C(=O)c1ccccc1S2
  PINK1 modulator: 0.9%
compound: CCCCNC(=O)CC1N=C2c3ccccc3N=C(SCC(=O)NCc3ccccc3Cl)N2C1=O (stereo unspecified)
  PINK1 modulator: 2.5%
compound: S=C(NCCCN(Cc1ccc(Cl)cc1)c1ccc(Br)cn1)NCc1ccc2nc[nH]c2c1
  PINK1 modulator: 0.7%
compound: Cc1cccc(C(=O)Nc2ccc(N3CCC(N4CCCCC4)CC3)c(C(=O)O)c2)c1
  PINK1 modulator: 0.1%

The main list resumes, repeating the 3 entries before the break.
SMILES,PINK1 modulator
O=C(NCCCN1CCN(c2ccc(F)cc2)CC1)C1COc2ccccc2C1 (stereo unspecified),1.1%
COc1ccc(NC(=O)C(C)N2Cc3ccccc3C2=O)cc1OC (stereo unspecified),-0.7%
CCOc1ccc(C(=O)Nc2ccc(-n3nncc3-c3ccc(OC)cc3)cc2)cc1,0.5%
COc1ccc(NC(=O)CSc2nc3ccccc3nc2Cc2ccc(C)cc2)cc1Cl,1.7%
CC(C)CC(NC(=O)C1CCC(C)CC1)C(=O)OCC(=O)c1ccc(Cl)cc1 (stereo unspecified),1.6%
O=S(=O)(c1ccc(-n2cnnn2)cc1)N1CCN(c2cccc(C(F)(F)F)c2)CC1,1.6%
Cc1cc(C)cc(NC(=O)Nc2ccc3nc(N4CCN(C)CC4)cc(C)c3c2)c1,4.9%
COc1cccc(CN2C(=O)[C@@H]3Cc4c([nH]c5ccccc45)C(C)(C)N3C2=O)c1,20.0%
Cc1ccc2c(c1)c1c(c(=O)n(-c3ccccc3C)c(=O)n1Cc1ccccc1F)n2C,4.4%
COc1ccc(-c2nsc(NC(=O)c3oc4ccc(Cl)cc4c3C)n2)cc1,0.4%
O=c1[nH]cc(CCc2ccccc2)c2ncncc12,-0.6%
Cc1onc(-c2ccccc2Cl)c1C(=O)Nc1nnc(C2CCCCC2)s1,-1.2%
COc1ccc(CN2COc3ccc4c(-c5ccccc5)cc(=O)oc4c3C2)cc1,0.6%
Cc1csc(CNc2ncnc3ccc(-c4cccnc4)cc23)c1,1.6%
Cc1ccc(NS(=O)(=O)c2ccc3[nH]c4c(c3c2)CCCCCC4)cc1,5.0%
O=C(NCCCN1CCN(c2ccccc2F)CC1)c1nnc(Cc2ccc(Cl)cc2Cl)o1,-0.9%
CCOC(=O)N1CCc2c(sc(NCc3ccc(N(C)C)cc3)c2C(=O)Nc2ccccc2OCC)C1,4.4%
CCOC(=O)c1cc(C)n(CC2CCC(C(=O)Nc3ccc(C)cc3)CC2)c1C (stereo unspecified),0.2%
COc1ccc(OC)c(CCNC(=O)C(C)n2c(C)c3cnn(-c4ccccc4)c(=O)c3c2C)c1 (stereo unspecified),1.7%
CCN(c1ccc(Cl)cc1)S(=O)(=O)c1nnc(NC(=O)c2ccccc2C)s1,1.1%
COc1ccccc1CNC(=O)CSc1nnc(C)c2c(C)n(-c3ccccc3)nc12,1.9%
Cc1ccccc1NC(=O)c1c(C)oc2ccc(O)c(CN3CCCCCC3)c12,1.0%
CCc1ccc(NC(=O)c2sc3nc(C)cc(C)c3c2NC(=O)c2ccccc2)cc1,0.9%

Overlap with the part before: three compounds; new compounds follow.
SMILES,PINK1 modulator
COc1ccccc1CNC(=O)CSc1nnc(C)c2c(C)n(-c3ccccc3)nc12,1.9%
Cc1ccccc1NC(=O)c1c(C)oc2ccc(O)c(CN3CCCCCC3)c12,1.0%
CCc1ccc(NC(=O)c2sc3nc(C)cc(C)c3c2NC(=O)c2ccccc2)cc1,0.9%
CCc1ccc2oc(-c3ccc(NC(=O)c4cc5ccccc5o4)cc3)nc2c1,4.8%
CC(=O)Nc1ccccc1-c1nc2ccccc2n(CC(=O)Nc2cccc(C(F)(F)F)c2)c1=O,-1.1%
CCN(C(=O)Cn1c(=O)oc2cc(S(=O)(=O)N3CCCCC3)ccc21)c1ccccc1,-0.8%
N#Cc1c2c(c(Cl)n3c1nc1ccccc13)CCCC2,0.5%
CCOC(=O)c1ccccc1NC(=O)c1sc2ccccc2c1Cl,1.3%
CC1(C)N=C(SCc2ccccc2Cl)c2ccccc2N1,12.3%
Cn1c(=O)oc2cc(S(=O)(=O)N3CCC(C(=O)Nc4ccc(F)c(Cl)c4)CC3)ccc21,1.7%
CCc1ccc(-n2nc(C)c3c(C(=O)N4CCN(c5ccccc5)CC4)cc(C)nc32)cc1,3.6%
COc1ccc(C2C(C(=O)Nc3cccnc3)=C(C)Nc3nc(-c4ccccc4)nn32)cc1OC (stereo unspecified),2.0%
CSc1cccc(NC(=O)C(c2ccccc2)N2Cc3ccccc3C2=O)c1 (stereo unspecified),15.0%
COc1ccccc1CCNC(=O)Cc1c(C)c2c(O)cc(C)cc2oc1=O,4.0%
CC(=O)N1CCc2c(sc3c2c(=O)n(-c2cc(Cl)ccc2C)c(=O)n3Cc2ccccc2F)C1,-1.1%
CCOc1ccc(C(=O)c2oc3ccccc3c2NC(=O)Cc2coc3ccc(CC)cc23)cc1,-0.2%
CCCNC(=O)C1CCN(S(=O)(=O)c2ccc3c(c2)CCCN3C(C)=O)CC1,2.7%
O=C(Nc1cccc(C(F)(F)F)c1)c1cccc(C(=O)Nc2cccc(C(F)(F)F)c2)c1,2.8%
CCOc1ccc(NC(=O)C2CCN(S(=O)(=O)c3c(C)noc3/C=C/c3ccco3)CC2)cc1,1.6%
Cc1ccc2c(c1)c(=O)c1ccccc1n2CCCC(=O)Nc1ccc(F)cc1F,3.5%
COc1ccccc1CNC(=O)C1CCN(S(=O)(=O)Cc2ccccc2)CC1,9.0%
Cc1ccc(C)c(N2CCN(C(=O)C3CCCN(S(=O)(=O)c4cccc5nsnc45)C3)CC2)c1 (stereo unspecified),2.1%
COc1ccc(S(=O)(=O)N2CCN(Cc3ccc4c(c3)OCO4)CC2)cc1OC,0.3%
CCOC(=O)c1noc2nc(C)n(CC(=O)Nc3ccc(Br)cc3C)c(=O)c12,1.3%
Cc1ccc([N+](=O)[O-])cc1NC(=O)CN(c1ccccc1)S(=O)(=O)N(C)C,0.3%
CCc1nc2ccccc2n2c(-c3ccccc3)c3c(=O)n(C)c(=O)n(C)c3c12,1.5%
CC(C)c1ccc(C2=CC(c3cccc(Cl)c3)n3ncnc3N2)cc1 (stereo unspecified),4.6%
Cc1cc(C)cc(OCC(=O)Nc2nc(-c3ccc(F)cc3)ns2)c1,-0.9%
COc1ccc(NC(=O)c2cc3c(=O)n(C)c4cc(Cl)ccc4c3s2)cc1Cl,-2.4%
O=C(CSc1nc(-c2cccc(F)c2)[nH]c1-c1ccccc1)Nc1ccc2c(c1)OCO2,?
Cc1ccc(C(=O)CSc2nc(-c3ccccc3)nc3c2CCCC3)cc1C,-3.5%
COc1ccc(-c2nc3ccccc3n2Cc2ccc(Cl)cc2)cc1,25.6%
Cc1ccc(N2CCn3c2nc2c3c(=O)n(CCc3ccccc3)c(=O)n2C)cc1C,0.1%
Cc1cc(C)cc(N(CC(=O)NCCc2ccc(Cl)cc2)S(=O)(=O)c2c(C)noc2C)c1,2.6%
COc1ccc(C(=O)Nc2ccc(-c3cc4ccccc4oc3=O)c(C)c2)cc1OC,6.3%
Cc1oc(-c2ccccc2F)nc1CS(=O)(=O)CC(=O)N1CCN(c2ccc(Cl)cc2)CC1,-0.6%
COc1cc(SC)ccc1C(=O)Nc1ccc(S(=O)(=O)Nc2nccc(C)n2)cc1,-0.7%
CCCCn1cnc2cc(NC(=O)c3cc(OC)c(OC)c(OC)c3)ccc21,0.1%
CCc1nnc(SCc2ccc(OC)cc2)c2cc3sc(C)cc3n12,1.2%
CCOc1ccc2nc(N3CCCC(C(=O)NCCc4ccc(C)cc4)C3)sc2c1 (stereo unspecified),-2.2%
CC(C)(C)C1CCc2c(sc(NC(=O)c3cccc(Cl)c3)c2C(N)=O)C1 (stereo unspecified),1.9%
COCc1cc(C)nc2sc3c(c12)NC(c1ccccc1C(=O)O)N(c1cccc(C(F)(F)F)c1)C3=O (stereo unspecified),2.1%
CCOC(=O)c1ccccc1NC(=O)N1CC(C)Oc2ccc(C)cc21 (stereo unspecified),6.6%

Taken from above:
Value of COc1ccc(C(=O)Nc2ccc(-c3cc4ccccc4oc3=O)c(C)c2)cc1OC under PINK1 modulator: 6.3%
Value of CCOC(=O)c1ccccc1NC(=O)N1CC(C)Oc2ccc(C)cc21 (stereo unspecified) under PINK1 modulator: 6.6%
Value of COc1cc(SC)ccc1C(=O)Nc1ccc(S(=O)(=O)Nc2nccc(C)n2)cc1 under PINK1 modulator: -0.7%
Value of Cc1cc(C)cc(OCC(=O)Nc2nc(-c3ccc(F)cc3)ns2)c1 under PINK1 modulator: -0.9%
Value of CCCCn1cnc2cc(NC(=O)c3cc(OC)c(OC)c(OC)c3)ccc21 under PINK1 modulator: 0.1%
Value of Cc1oc(-c2ccccc2F)nc1CS(=O)(=O)CC(=O)N1CCN(c2ccc(Cl)cc2)CC1 under PINK1 modulator: -0.6%
Value of Cc1ccc(N2CCn3c2nc2c3c(=O)n(CCc3ccccc3)c(=O)n2C)cc1C under PINK1 modulator: 0.1%

Next part:
SMILES,PINK1 modulator
Cc1ccc(N2CC(c3nc(-c4ccc(Cl)cc4)no3)CC2=O)cc1F (stereo unspecified),1.0%
CCc1ccc(NC(=O)CSC2=Nc3ccccc3C3=NC(CC(=O)NCc4ccc5c(c4)OCO5)C(=O)N23)cc1 (stereo unspecified),8.8%
CCN(c1ccc(C)cc1)S(=O)(=O)c1nnc(NC(=O)C2CCCCC2)s1,1.7%
Cc1ccc(C(=O)Nc2ccc(-c3nc4ccccc4s3)cc2C)cc1C,0.1%
CCOC(=O)CC(NC(=O)CCc1c(C)nc2c(-c3ccccc3)c(C)nn2c1C)c1ccc(OC(C)C)cc1 (stereo unspecified),2.6%
CCN(CC)c1ccc(-c2nc(-c3ccco3)no2)cc1[N+](=O)[O-],5.7%
Cc1ccc(Nc2nc(NCc3ccco3)nc3nccnc23)cc1Cl,4.8%
COc1ccc(C)cc1NC(=O)N1CCC(CN2CCOCC2)CC1,-0.6%
CSc1nnc(NC(=O)c2cc(=O)c3cc(C)c(C)cc3o2)s1,1.2%
Cc1onc(-c2ccc(F)cc2F)c1C(=O)Nc1cccc(C(F)(F)F)c1,3.9%
c1coc(-c2ccccc2CN2CCOc3ccc(CN4CCOCC4)cc3C2)c1,0.9%
CC(C)CCNC(=O)c1ccc2c(c1)NC(=O)C(C(C)C)N2 (stereo unspecified),2.1%
COc1ccc(CNC(=O)Nc2cn(CC(C)C)c(=O)c3ccccc23)c(OC)c1,0.8%
Cc1ccc(-n2nc3c(=O)n(C(C)C(=O)NCc4ccc(OC(C)C)cc4)nc(C)c3c2C)cc1 (stereo unspecified),1.7%
CCn1c(=O)c2sccc2n2c(CCC(=O)NCc3ccc(Cl)cc3)nnc12,-0.3%
N/C(=C\c1ccccc1)c1ccncc1,-0.2%
Cc1ccc2c(=O)cc(C(=O)Nc3sc4c(c3C(=O)NCc3ccco3)CCC4)oc2c1C,6.8%
O=C(Nc1nc2ccc(F)cc2s1)c1nc(S(=O)(=O)Cc2ccccc2)ncc1Cl,-0.2%
